Screens (PubChem BioAssay)
Sfp PPTase inh: inhibitors of Bacillus subtilis Sfp phosphopantetheinyl transferase. Q9F4F7. Biochemical Sfp PPTase activity, qHTS. Potency, µM, without a hit: max response, negative = inhibition, hits mostly inhibitors. 310,000 tested, 3.5% active. AID 1490; active = well fitted inhibition curve with a large enough effect; inconclusive = small, poorly fitted or top-dose-only effect, or another doubt; inactive = no such curve, though single readings can be large or run the other way;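 note: the enzyme is Sfp with the accession as filed and its product quenches rhodamine fluorescence; potency is the fitted concentration of half-maximal effect; 0% = enzyme reaction without inhibitor and -100% = no enzyme wells; top concentration of the series not given in the record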
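Buffer: 50 mM Hepes-Na pH 7.6, 10 mM MgCl2, 0.01% Nonidet P-40, 0.01% BSA. Enzyme 15 nM, pre-exposed to compound 15 min; substrates then added and fluorescence change tracked over 30 min.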
ClpP mod: qHTS Assay for Activators of ClpP; purified B. subtilis ClpP, FRET peptide cleavage, 20 min; Potency, µM (series often up to 57.5 µM), without a hit: at the highest dose activity change, negative = active; 340,000 tested, 1.9% active; AID 651965, 2013; active = well fitted falling curve with a large enough effect; inconclusive = small, poorly fitted or top-dose-only effect; inactive = no such curve, though single readings can be large or run the other way; note: potency is the fitted concentration of half-maximal effect; the source files actives as falling curves though it sought activators and does not explain the sign; nearly all actives have a fitted effect of over 65% in size; many hits overshoot -100%
Target sequence (P80244 whole entry, looked up): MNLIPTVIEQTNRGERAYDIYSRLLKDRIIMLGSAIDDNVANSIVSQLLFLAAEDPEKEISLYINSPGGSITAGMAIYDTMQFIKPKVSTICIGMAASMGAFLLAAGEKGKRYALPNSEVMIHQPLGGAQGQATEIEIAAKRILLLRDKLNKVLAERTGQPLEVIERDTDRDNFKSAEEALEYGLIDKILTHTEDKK
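Buffer: 100 mM Tris/HCl pH8, 100 mM KCl, 0.05% low protease BSA, 2.5% glycerol, 0.01% Tween-20. ClpP 10 microg/mL final; 20 min RT; delta FRET normalized to ADEP and DMSO controls.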
gsp antagonist: antagonists of gsp mutant (McCune-Albright syndrome) | AID 624288 | Potency, µM (series often up to 76.9 µM), without a hit: top-dose activity change, negative = inhibition, usual class: inhibitors | 340,000 tested, 0.4% active | gsp-mutant cells, cAMP HTRF, 30 min; control for the full effect not named in the record; active = falling curve of any shape with a large fitted effect; inconclusive = falling curve, mostly with a smaller effect; inactive = flat or rising curve; cell line not stated here;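 note: intracellular cAMP measured with PDE inhibitor Ro 20-1724 present during compound exposure; potency is the fitted concentration of half-maximal effect; % is set by controls: 0 for no effect and ±100 for the full control effect; nearly all actives have a fitted effect of over 65% in size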
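HTRF cAMP measurement after 30 min RT detection following 30 min, 37C compound treatment alongside […] (added as 300 uM solution) in G418-selected cells seeded at 2000/well and grown 16–24 h.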
TRPML1 inh: inhibitors of human TRPML1 channel; AID 624415; TRPML1-inducible cells, Ca2+ dye fluorescence, FDSS; hits give low values; inhibition of EC80 agonist-evoked calcium signal; Q9GZU1; 390,000 tested, 0.02% active; activity change, negative = inhibition, % (concentration not given with the values); in the data active means activity change below about -50%; inconclusive means about -30% to -50%; inactive means above about -30%;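 note: stimulus is agonist 54-4 at its EC80 concentration; % is set by controls: 0 for no effect and ±100 for the full control effect; compound concentration not given in the record; the text of the record puts the active cut at -80%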
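Tet-induced TRPML1-DL cells loaded with Ca8 no-wash calcium dye were read kinetically on FDSS. Compound addition was followed by EC80 agonist 54-4 (4 uM final); inhibition was read over 110 s.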
gsp agonist: activates gsp, the McCune-Albright syndrome mutation; gsp mutant cells, cAMP HTRF, 30 min; control for the full effect not named in the record; Potency, µM (highest dose often 76.9 µM), inactives show at the top dose activation (cAMP increase), hits mostly activators; 340,000 tested, 0.13% active; active = well fitted activation curve with a large enough effect; inconclusive = small, poorly fitted or top-dose-only effect, or another doubt; inactive = no such curve, though single readings can be large or run the other way; cell line not stated here;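 note: phosphodiesterase inhibitor Ro 20-1724 added with compounds to block cAMP breakdown; potency is the fitted concentration of half-maximal effect; nearly all actives have a fitted effect of over 60% in size; about a fifth of the inactives were tested at one dose only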
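Cells in DMEM/10% FBS with G418 were pretreated with compounds in DMSO plus […] (300 uM stock) for 30 min at 37C. cAMP was measured by HTRF (cAMP-d2 plus anti-cAMP antibody-K) after 30 min at room temperature.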
Menin-MLL FL inh: inhibitors of human menin-MLL interaction, wild-type MLL peptide; Fluorescence polarization, fluorescein-MLL peptide displacement from menin; FP activity change, % at 61.4 µM; 290,000 tested, under 10 active; AID 1766; inconclusive = falling polarisation curve, or a change in total fluorescence; inactive = total fluorescence flat and polarisation flat or rising; no compound was filed as active; the % refers to the polarisation; negative = inhibition;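 note: % of control where 0% means no effect; inhibitors lower the polarisation; unlabelled MLL peptide was the positive control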
TRPV1 potentiator: potentiators of human vanilloid receptor 1 (TRPV1); 320,000 tested, 0.02% active; potentiation, % at 8.33 µM; Q8NER1; TRPV1-expressing cells, Fluo-8 calcium influx, capsaicin EC20 potentiation; host cell line not named in the record; control for the full effect not named in the record; active means potentiation above 80%; inconclusive means 30% to 80%; inactive means below 30%; note: 0% is about no effect
Target sequence (Q8NER1 whole entry, looked up): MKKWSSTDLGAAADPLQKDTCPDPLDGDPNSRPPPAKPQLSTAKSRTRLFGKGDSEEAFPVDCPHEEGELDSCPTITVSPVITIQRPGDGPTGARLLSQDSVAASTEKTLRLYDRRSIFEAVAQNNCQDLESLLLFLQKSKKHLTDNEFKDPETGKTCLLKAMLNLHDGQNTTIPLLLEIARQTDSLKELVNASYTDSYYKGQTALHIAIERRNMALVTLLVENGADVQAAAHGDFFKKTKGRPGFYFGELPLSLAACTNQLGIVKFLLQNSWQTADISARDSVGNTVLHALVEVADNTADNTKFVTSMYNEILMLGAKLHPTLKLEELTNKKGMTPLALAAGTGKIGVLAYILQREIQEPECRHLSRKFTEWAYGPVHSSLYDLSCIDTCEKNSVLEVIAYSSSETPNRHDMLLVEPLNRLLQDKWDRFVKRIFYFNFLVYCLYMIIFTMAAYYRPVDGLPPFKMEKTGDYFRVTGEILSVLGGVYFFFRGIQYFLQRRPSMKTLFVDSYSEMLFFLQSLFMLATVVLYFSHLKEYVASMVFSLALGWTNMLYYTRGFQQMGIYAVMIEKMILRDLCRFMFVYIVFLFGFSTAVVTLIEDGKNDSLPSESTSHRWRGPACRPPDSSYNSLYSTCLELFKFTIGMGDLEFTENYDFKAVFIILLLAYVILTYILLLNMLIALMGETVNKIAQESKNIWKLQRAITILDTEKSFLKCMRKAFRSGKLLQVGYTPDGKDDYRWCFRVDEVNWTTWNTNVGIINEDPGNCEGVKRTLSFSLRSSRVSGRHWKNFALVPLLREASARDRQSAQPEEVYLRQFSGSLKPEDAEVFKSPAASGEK
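Cells expressing TRPV1 were dye-loaded with Fluo-8 and read kinetically: 10 s baseline, 3 min after compound (agonist portion), then 2 min after EC20 capsaicin (allosteric enhancer portion). Calcium-bound dye fluorescence at 480/520 nm.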
Starred values were filed as active, the others as inactive; ? = inconclusive; · = no result given; & = joins results of further samples; [ ] = another dose, or the depositor's remark. Random draw from the library, and some 4.9% of all compounds hit somewhere here.

1. COc1ccc(C(=O)Nc2nnc(-c3ccco3)s2)cc1
2. Cc1ccc(NC(=O)C(=O)NCCN2CCN(S(C)(=O)=O)CC2)cc1C
3. COc1cc(/C=c2\s/c(=C\C(=O)C(C)(C)C)[nH]c2=O)cc(OC)c1OC
4. COCCNC(=O)/C(C#N)=C/c1ccc(OCC(=O)NC2CCCCC2)cc1
5. CS(=O)(=O)c1ccccc1-c1nnc(NC(=O)c2cccc(N3C(=O)CCC3=O)c2)o1
6. CCOc1ncccc1C(=O)OCC(=O)c1ccc(Br)s1
7. Cc1nc2ccccn2c1/C(O)=C1\C(=O)C(=O)N(CCN2CCOCC2)C1c1cccs1 (stereo not given)
8. Cc1nnc2n(-c3ccc(Cl)cc3)c(=O)c3c4c(sc3n12)CN(C)CC4

compound no.,1,2,3,4,5,6,7,8
Sfp PPTase inh,-4%,4%,-6%,25%,·,·,8%,-9%
ClpP mod,-12%,·,-1.8%,·,·,-2.5%,-7.3%,·
gsp antagonist,4%,4%,11%,8%,7%,-8%,12%,·
TRPML1 inh,-3,9,6,-4,-23,-15,-4,·
gsp agonist,?,10%,-13%,-2%[15.4 µM],-14%[15.4 µM],9%[15.4 µM],13%,·
Menin-MLL FL inh,-1.7,-3.3,38[activator],-2.7,·,·,-11,0.3
TRPV1 potentiator,23,7,-13,-4,27,·,-7,5

9. NC(=O)c1ccc(NC(=O)CN2CCN(S(=O)(=O)c3ccc4ccccc4c3)CC2)cc1
10. N/C(=N\NC(=O)c1cccs1)c1cc2cc(Cl)ccc2oc1=O
11. Nc1nnc(CCOc2ccc(Cl)cc2)s1
12. CC(=O)Nc1nc(SCc2cccc3ccccc23)n[nH]1
13. COc1ccc(-c2cc(C(=O)Nc3c(C)n(C)n(-c4ccccc4)c3=O)no2)cc1
14. CCOC(=O)C1=C(C)N(CCC(=O)O)C(=O)NC1c1ccccc1Cl (stereo not given)
15. COc1ccc(C(=O)COC(=O)c2cc([N+](=O)[O-])ccc2N2CCOCC2)c(OC)c1
16. N#Cc1c(NC(=O)c2ccc(Cn3cc(Br)cn3)o2)sc2c1CCCCCC2

compound no.,9,10,11,12,13,14,15,16
Sfp PPTase inh,·,17%,24%,3%,9%,·,·,?
ClpP mod,1.9%,-4.1%,-2.6%,1.9%,-5.1%&-4.6%,-1.0%,-0.1%,-17%
gsp antagonist,-3%,-10%,2%,5%,1%,4%,1%,-7%
TRPML1 inh,-6,8,5,-4,-7&4,-4,-26,45
gsp agonist,-37%[inhibitor],-1%,-8%,-56%[inhibitor],-31%[inhibitor],3%,-20%,?
Menin-MLL FL inh,·,2.2,3.8,2.0,3.8,·,·,12
TRPV1 potentiator,-4,-11,5,-6,3,·,-7,-10

17. O=C(NC(C(=O)N/N=C/c1cc([N+](=O)[O-])ccc1O)c1n[nH]c(=O)c2ccccc12)c1ccccc1 (stereo not given)
18. O=C(CSc1nnc(NC(=O)C2CC2)s1)NCc1ccco1
19. COCCN(CC(=O)Nc1cccc(C)c1)S(=O)(=O)c1ccc(S(=O)(=O)N2CCCC2)cc1
20. O=C(C[C@H]1C[C@H]2c3cc(NC(=O)CC4CC4)ccc3O[C@H]2[C@H](CO)O1)NCc1ccccc1F
21. COC(=O)CSC(C(=O)Nc1ccc(C)c(C)c1)c1ccccc1 (stereo not given)
22. Cc1ccc2c(c1)C(=O)C(=O)N2CC(=O)Nc1ccccc1NC(=O)c1ccccn1
23. CC1Cc2ccccc2N1C(=O)CSc1nc2ccccc2s1 (stereo not given)
24. CCn1c2ccccc2c2cc(NC(=O)COC(=O)c3ccccc3F)ccc21

compound no.,17,18,19,20,21,22,23,24
Sfp PPTase inh,7%,-19%,13%,·,13%,-4%,-11%,-5%
ClpP mod,·,0.7%,1.1%,-2.5%,0.6%,·,-3.5%,-9.2%
gsp antagonist,-15%,-10%,33%[activator],·,0%,29%,?,3%
TRPML1 inh,1,-8,90,6,-13,-9,0,19
gsp agonist,13%[15.4 µM],-12%,10%,-19%,12%,-2%[15.4 µM],-23%,-6%[15.4 µM]
Menin-MLL FL inh,0.5,-0.6,-1.0,·,2.9,-0.6,2.5,11
TRPV1 potentiator,?,-18,-6,·,-9,0,3,7

By substructure: the entries above containing an NH in an aromatic ring
3. COc1cc(/C=c2\s/c(=C\C(=O)C(C)(C)C)[nH]c2=O)cc(OC)c1OC
12. CC(=O)Nc1nc(SCc2cccc3ccccc23)n[nH]1
17. O=C(NC(C(=O)N/N=C/c1cc([N+](=O)[O-])ccc1O)c1n[nH]c(=O)c2ccccc12)c1ccccc1 (stereo not given)

compound no.,3,12,17
Sfp PPTase inh,-6%,3%,7%
ClpP mod,-1.8%,1.9%,·
gsp antagonist,11%,5%,-15%
TRPML1 inh,6,-4,1
gsp agonist,-13%,-56%[inhibitor],13%[15.4 µM]
Menin-MLL FL inh,38[activator],2.0,0.5
TRPV1 potentiator,-13,-6,?

Entries by screen from above.
gsp agonist, entries 19 to 23, in order: 10%, -19%, 12%, -2%[15.4 µM], -23%

Next part.
| nr | Structure | Sfp PPTase inh | ClpP mod | gsp antagonist | TRPML1 inh | gsp agonist | Menin-MLL FL inh | TRPV1 potentiator |
| --- | --- | --- | --- | --- | --- | --- | --- | --- |
| 25 | CN1CCC[C@H]1CCNc1ccc2c(=O)c3ccccc3n(C)c2c1 | · | 3.9% | 2% | 4 | · | · | · |
| 26 | CCOC(=O)[C@@H]1[C@H]2COc3cc(OC)ccc3[C@@H]2N2C(=O)N(c3cccc(Cl)c3)C(=O)[C@]12C | 13% | -1.7% | -7% | -2 | · | -3.9 | 5 |
| 27 | CCOc1ccc(OCCN2CCCCC2)cc1 | -17% | 0.7% | 7% | 6 | -69%[inhibitor] | 5.0 | 2 |
| 28 | COc1ccccc1-n1c(SCC(=O)NC2CC2)nc2ccccc2c1=O | · | -2.6% | 7% | 12 | -10% | · | -2 |
| 29 | CCCC(=O)Nc1ccc(C2C(=O)c3ccccc3C2=O)cc1 | 0% | 0.4% | -13% | 4 | -1%[15.4 µM] | -4.0 | 2 |
| 30 | CC(C)CC(NC(=O)C1CCCCC1)C(=O)N1CCN(c2ccccn2)CC1 (stereo not given) | 0% | 28µM* | 6% | 6 | -1% | 1.4 | 0 |
| 31 | Cc1cc(NC(=O)CSc2nc(C3CC3)nc3sc(C)c(C)c23)no1 | 10% | 0.5% | 11% | -8 | 8% | 7.0 | 2 |
| 32 | COc1cc(O)c(C(CCN2CCCC(C)C2)c2ccc3c(c2)OCO3)c(OC)c1 (stereo not given) | 5%&0% | 0.8% | 1% | -1&10 | · | 3.5&0.2 | 8 |
| 33 | Cc1cc(C)c2c(c1)C(=O)/C(=C/c1ccc(C(=O)O)cc1)CC2 | 0% | · | -32% | 14 | 0%[15.4 µM] | -8.9 | 3 |
| 34 | COC(=O)Cn1cc([N+](=O)[O-])nc1C | 21% | 0.2% | 4% | 4 | 8% | 0.6 | 8 |
| 35 | COc1ccccc1NC(=O)c1ccc(S(=O)(=O)N(C)c2ccccc2)cc1 | · | -3.1% | -12% | 6 | -7%[15.4 µM] | · | -8 |
| 36 | CCn1c(=S)[nH]c2cc(C(=O)O)ccc21 | ? | · | · | · | · | -11 | 13 |
| 37 | O=C(NCCCN1CCCC1=O)c1ccc(NS(=O)(=O)c2ccc(F)cc2)cc1 | · | -0.1% | 1% | -8 | 17% | · | -7 |
| 38 | CC(C)CNc1nc(Oc2ccc(=O)[nH]n2)nc(N2CCOCC2)n1 | -11% | · | -4% | 13 | 25%[15.4 µM] | -0.5 | 10 |
| 39 | Cc1ccc(NC(=O)c2ccc([N+](=O)[O-])o2)cc1C | 17% | · | -11% | 3 | -33%[inhibitor] | -6.4 | -12 |
| 40 | C=CCCC(=O)N1CCC(n2nccc2NC(=O)c2ccccc2C)CC1 | 5% | 0.6% | 8% | -15 | -3% | · | -5 |
| 41 | O=c1[nH]c(SCc2ccccc2Cl)nc2c1cnn2-c1ccccc1 | -6% | 2.4% | 17% | 6 | -30% | -2.2 | -3 |
| 42 | CCOC(=O)Cn1c(=O)oc2cc(S(=O)(=O)N(C)c3ccc(OC)cc3)ccc21 | 6% | · | -12% | -7 | 5%[15.4 µM] | 8.6 | -11 |
| 43 | CC(/C=C/c1ccccc1)=N/NC(=O)CNC(=O)c1ccccc1F | 10% | · | 1% | -6 | 10%[15.4 µM] | 0.2 | 3 |
| 44 | CCOCCCn1c(SCC(=O)Nc2cccc(S(=O)(=O)NC3=NCCCCC3)c2)nc2ccccc2c1=O | 11% | -1.8% | -15% | -15 | 10% | 11 | 4 |
| 45 | O=c1c(-c2ccc(O)cc2O)coc2cc(O)cc(O)c12 | 2% | -0.1% | -9% | · | · | -0.6 | -3 |
| 46 | CCOC(=O)CN1CCC(C2(c3cc4ccccc4[nH]3)OCCO2)CC1 | · | -0.2% | · | 5 | -11% | · | · |
| 47 | CCNC(=O)NC(=O)COC(=O)CCCSc1nc2ccccc2s1 | -2% | -0.6% | -3% | -5 | 22% | 2.5 | 4 |
| 48 | C=CCOC(=O)C1=C[C@H](c2cn(C(C)=O)c3ccccc23)C[C@H](OCCCCO)O1 | -8% | 0.1% | -10% | 19 | -4% | 7.9 | 22 |
| 49 | O=C(CCc1ccccc1)N/N=C\C1CC=CCC1 (stereo not given) | 10% | -0.5% | 6% | 6 | -18%[15.4 µM] | · | -1 |
| 50 | CN1C=CC=C/C1=C1/SC(=S)N(Cc2ccccc2)C1=O | ? | -0.4% | 1% | -8 | -46%[inhibitor] | 20 | -7 |
| 51 | CCN(CC)c1ccc(/C=N/NC(=O)c2cccc(S(=O)(=O)N3CCOCC3)c2)c(O)c1 | 8% | · | -4% | 10 | -8%[15.4 µM] | ? | -3 |
| 52 | O=C1NCCN1Cc1cccc(Cl)c1 | 10% | -1.5% | -1% | -8 | 18% | -1.8 | -14 |
